Vaccinia Venus – inhibitors of vaccinia virus (Venus reporter). actives 0.46% (n = 330,000). Vaccinia virus Venus reporter expression, fluorescence. Potency, µM (titrated, usually from 36.5 µM), for the others: top-dose activity change, negative = inhibition, most hits filed as inhibitors; active means well fitted inhibition curve with a large enough effect; inconclusive means small, poorly fitted or top-dose-only effect; inactive means no such curve, though single readings can be large or run the other way; tested in A549 cells; also: nearly all actives have a fitted effect of over 30% in size; inactives centre near -10
VACV mCherry inh – vaccinia inhibition (mCherry reporter); actives 0.63% (n = 310,000); AID 720579; Potency, µM (doses to about 36.5 µM), without a hit: top-dose activity change, negative = inhibition, actives largely listed as inhibitors; Vaccinia virus mCherry reporter infection, fluorescence; about a quarter of the inactives have no number; active = well fitted inhibition curve with a large enough effect; inconclusive = small, poorly fitted or top-dose-only effect; inactive = no such curve, though single readings can be large or run the other way; tested in A549 cells; also: nearly all actives have a fitted effect of over 35% in size; inactives centre near -10
* = called active by the depositor; i = inactive; ? = inconclusive; · = no result given; [ ] = another dose, or the depositor's remark. % is scaled to controls: 0 for no effect and ±100 for the full control effect; potency is read from the fitted curve at half-maximal effect.

Every second line gives: Vaccinia Venus	VACV mCherry inh
- COC(=O)c1cc(OC)c(OC)cc1NC(=O)C1CCC(=O)N1S(=O)(=O)c1ccc(C)cc1 (configuration not stated)
 : -6%	-12%
- CC(=O)ON(C(C)=O)c1ccc(/C=C2/C=Cc3ccccc32)cc1
 : -22%	-2%
- CCOc1cccc(Nc2ccc([N+](=O)[O-])cn2)c1
 : 1%	-10%
- CC[C@H](C)[C@H]1CNC(=O)C(=O)N1CC1CCN(CC2CCC(C)CC2)CC1 (some centres not stated)
 : -14%	?
- COc1ccc(N2CCN(Cc3nc4c(c(=O)[nH]c(=O)n4C)n3Cc3ccccc3)CC2)cc1
 : -11%	-17%
- CCN(CC)CCNC(CC(=O)Nc1ccc(Cl)cc1Cl)C(=O)O (configuration not stated)
 : -4%	·
- Cc1nc2c3ccccc3nc(NNC(=O)CCC(=O)N3CCN(c4cccc(C(F)(F)F)c4)CC3)n2n1
 : -14%	-8%
- Cn1c(O)c(C=NCCCNC2CCCCC2)c(=O)n(C)c1=O
 : -6%	·
- COc1cccc(-c2cc3c(c(OC)c2)OCCN(Cc2cccn2-c2ccccn2)C3)c1
 : -1%	-16%
- CS(=O)(=O)c1ccc(C(=O)OCC(=O)c2ccc(Cl)s2)cc1
 : -16%	i
- CSCCC(NC(=O)COc1ccccc1)C(=O)N1CCN(c2ccccc2Cl)CC1 (configuration not stated)
 : -29%	-32%
- COC(=O)[C@@]12CCCN1[C@H](c1ccc(-c3ccc(Cl)c(Cl)c3)cc1)[C@H]1C(=O)N(C)C(=O)[C@H]12
 : ?	-16%
- COc1ccc2oc(-c3ccc(C)c(NC(=O)CSc4ccc(Cl)cc4)c3)nc2c1
 : 0%	-2%
- CCc1ccc(OCC(=O)Nc2ccc3c(c2)c2ccccc2n3CC)cc1
 : ?	-12%
- Cc1[nH]nc(SCC(=O)N2CCCCC2)c1[N+](=O)[O-]
 : -15%	-12%
- CN(Cc1ccccc1)c1ncnc2c1nc1n2CCCC1
 : -10%	i
- COc1ccccc1NC(=O)C1=C(C)NC(=O)NC1c1ccccc1[N+](=O)[O-] (configuration not stated)
 : -1%	i
- CC(=O)C1=C(C)N2CCN=C2S1
 : 11%	1%
- COc1ccc(N2CCN(C(=O)Cc3nn(C)c(=O)c4ccccc34)CC2)cc1
 : -14%	-23%
- COc1ccc(CCNC(=O)COC(=O)/C=C/c2cccc(F)c2)cc1
 : -10%	-1%
- CCCN1CCC(=O)N([C@H](CSc2ccc(Br)cc2)Cc2ccccc2)CC1
 : -14%	-3%
- COC(=O)C1=C(c2ccccc2OCc2ccccc2)C[C@@H]2CC[C@H]1N2C(=O)NCCOc1ccccc1Cl
 : ?	-15%
- COc1ccc(NC(=O)CCC(=O)c2cccs2)cc1S(=O)(=O)Nc1ccc(Cl)cc1
 : 10%	10%
- O=C(CCc1nc2ccccc2c(=O)[nH]1)NCc1ccco1
 : -22%	-26%
- CC(OC(=O)C1=COCCO1)C(=O)Nc1ccc(Oc2ccccc2)cc1 (configuration not stated)
 : -5%	-10%
- Cc1ccc(-c2ccnc(-c3ccc(O)cc3)n2)cc1
 : ?	?
- CC(NC(=O)C1CCN(S(=O)(=O)c2ccc(Br)s2)CC1)c1ccccc1 (configuration not stated)
 : -4%	i
- CCOc1cc(/C=N/NC(=O)c2cccnc2)ccc1O
 : -16%	?
- CCc1ccc(N2C(=O)NC(=O)/C(=C\c3cccn3CCOc3ccc(C(C)C)cc3)C2=O)cc1
 : -11%	i
- CCCCSc1nc(-c2ccc(OC)cc2)ccc1C#N
 : -2%	-3%
- Cc1cc(C)n(-c2ccc(C(=O)OCn3nnc4ccccc4c3=O)cc2)n1
 : -13%	-14%
- O=C(Nc1nnc(COc2ccccc2)s1)c1ccco1
 : -7%	-6%
- Cc1cc(C)cc(NC(=O)C2CCN(C(=O)[C@@H]3Cc4ccccc4CN3)CC2)c1
 : -9%[7.34 µM]	-19%[7.34 µM]
- O=[N+]([O-])c1ccc(/C=C2\C=C(C(O)c3ccc([N+](=O)[O-])cc3)c3ccccc32)cc1 (configuration not stated)
 : ?	?
- O=C(COC(=O)Cc1ccc(Cl)cc1)Nc1ccccc1F
 : -20%	-13%
- CCCCOC(=O)Nc1ccc(S(=O)(=O)Nc2nc(C)cc(C)n2)cc1
 : -11%	i
- O=C(O)C1Nc2c(C(F)(F)F)ccc(Cl)c2C2C=CCC12 (configuration not stated)
 : -12%	i
- COC(=O)C12CCC3(SCCS3)C(C(=O)OC)(CCC13SCCS3)C2
 : -3%	-9%
- Cc1cc(-c2nnc(SCC(=O)c3ccc(F)cc3)o2)no1
 : 7%	-1%
- O=C(Nn1cnnc1)c1ccccc1-c1ccccc1
 : -10%	i
- Cc1c(CCNC(=O)c2ccco2)sc2nc(-c3ccc(F)cc3)nn12
 : -14%	i
- O=C(CCn1cccc1)NCCc1ccc(Cl)cc1
 : -12%	·
- O=c1ccc(=O)n(-c2ccccc2)[nH]1
 : -14%	i
- CC(=O)Nc1cccc(Oc2nc(C)cc(C)c2C#N)c1
 : -7%	36%[activator]
- COc1ccc(NC(=O)Cc2ccc(C)c(C)c2)cc1S(=O)(=O)N1CCCCC1
 : -23%	-8%
- CNC(=O)c1ccccc1Sc1ccccc1CO
 : -9%	i
- COc1ccc(CN2C(=O)CSCC2(C)C(=O)NCc2ccccc2)cc1OC (configuration not stated)
 : 8%	i
- Cc1ccc(C)c(-n2c(=O)c(C#N)cc3c(=O)n4ccccc4nc32)c1
 : -6%	-1%
- O=C(CN1CCN(CCC(=O)Nc2ccccc2F)CC1)Nc1ccc(Cl)cc1
 : -20%	?
- Cc1cc(Cl)cc(C)c1OCCn1ccnc1
 : 14%	-22%
- CCn1c(SCC(=O)NCc2ccco2)nnc1-c1cccc(N(C)C)c1
 : -21%	-3%
- Cc1cccc(OCCCC(=O)NC(C)C)c1
 : 11µM*	·
- COc1ccc(NC(=O)COC(=O)COc2cccc(Br)c2)cc1OC
 : -5%	-4%
- Fc1cccc(CCN2CCNC[C@@H]2Cc2ccccc2)c1
 : -2%	-4%
- NC(=O)C[C@H]1NC(=O)[C@H](CCC(=O)O)NC(=O)c2cc([N+](=O)[O-])cc(I)c2NCCC[C@@H](C(N)=O)NC1=O
 : -1%	i
- COc1cc(NC(=O)C(CCSC)NS(=O)(=O)c2ccc3c(c2)oc(=O)n3C)cc(OC)c1 (configuration not stated)
 : -7%	-1%
- CC/C(=N\NC(=O)CNC(=O)/C=C/c1ccc(OC)cc1)c1ccccc1
 : -8%	i
- CNC(=O)c1cc2cc(Br)ccc2s1
 : -2%	-14%
- O=C(/C=C/c1cccs1)NNC(=O)c1cccc([N+](=O)[O-])c1
 : -13%	?
- COc1cc2nc(N3CCCN(C)CC3)nc(NC3CC3)c2cc1OC
 : -27%	-10%

Additional structures
Every second line gives: Vaccinia Venus	VACV mCherry inh
- COC(CNC(=O)CCCn1nnnc1CN1CCOCC1)c1cccs1 (configuration not stated)
 : -8%	-14%
- COc1ccc(-c2nc3ccccc3s2)cc1NC(=O)c1ccc(C#N)cc1F
 : 2%	1%
- O=C(NCc1cccnc1)c1cccc(C(F)(F)F)c1
 : -14%	0%
- O=C(OCc1ccc([N+](=O)[O-])cc1)c1ccc2ccccc2n1
 : 0%	i
- CCCC(=O)Nc1nc(-c2ccc3c(c2)CCN3S(C)(=O)=O)cs1
 : -24%	-14%
- CC1CCN(C(=O)CN2c3ccc(Br)cc3-c3ccccc3S2(=O)=O)CC1
 : -1%	i
- CC1(C)Cc2noc(N)c2C(C)(C)N1OC(=O)c1scc2c1OCCO2
 : -16%	-19%
- Cc1nc(SCC(=O)OC(C)(C)C)c2c3c(sc2n1)CCCC3
 : -8%	0%
- N#CC(C#SN)=C1CCCCC1
 : -12%	-15%
- CCN(c1ccccc1)S(=O)(=O)c1ccc(C(=O)Nc2ncccc2O)cc1
 : -23%	i
- Cc1ccc(S(=O)(=O)CC(=O)NC2CC2)cc1
 : 0%	·
- Cc1ccc2oc(-c3ccc(NC(=O)CC(C)C)cc3)nc2c1
 : 0%	-11%
- COc1cccc(C(=O)NCC(=O)N/N=C(\C)Cc2ccccc2)c1
 : -9%	i
- COc1ccc2c(c1)c(=O)c(C(=O)c1ccc(C)c(C)c1)cn2CC(=O)Nc1ccc2c(c1)OCCO2
 : 0%	12%
- Cc1ccc(N2C(=O)C3CCC(C)(C2=O)C3(C)C)cc1 (configuration not stated)
 : -11%	-24%
- Cc1ccc(S(=O)(=O)NCCn2nc(C)cc2C)cc1
 : -9%	-2%
- O=C(CCc1ccccc1)NC1CCS(=O)(=O)C1 (configuration not stated)
 : -11%	-17%
- Cc1cccc(NC(=O)c2oc3ccccc3c2NC(=O)Cc2coc3cc(C)cc(C)c23)c1
 : -23%	-20%
- N#Cc1ccc(OCC(=O)N2CCN(Cc3ccc4c(c3)OCO4)CC2)cc1
 : -11%	i
- CN(Cc1cccc(F)c1)C(=O)C1CC(=O)N(Cc2ccco2)C1 (configuration not stated)
 : -4%	i
- Cc1cnc(NC(=O)CN2CCN(c3ccccn3)CC2)s1
 : ?	?
- COC(=O)C(NC(C)=O)(Nc1nc2c(C)cc(C)cc2s1)C(F)(F)F (configuration not stated)
 : ?	?
- COc1cc(/C=C(/C(=O)O)c2ccc(-c3ccccc3)cc2)cc(OC)c1OC
 : -27%	-24%
- COc1cc(-c2cc(C(=O)Nc3cccc(S(=O)(=O)N(C)C)c3)c3ccccc3n2)cc(OC)c1OC
 : -3%	-6%
- CC(C)(C)c1ccc(CC(=O)N2CCC2(C)C(=O)NS(=O)(=O)Cc2ccccc2)cc1 (configuration not stated)
 : -3%	15%
- CCCC(=Nc1ccccc1OC)C1=C(O)CC(c2ccccc2)CC1=O (configuration not stated)
 : -4%	7%
- CNC(=O)CCC(=O)Nc1ccc(C(=O)OC)cc1
 : -4%	-11%
- OC(Cn1cncn1)(c1ccccc1)c1ccccc1
 : -5%	-14%
- Nc1cc(C(=O)Nc2ccccc2F)ccc1N1CC2CC(C1)c1cccc(=O)n1C2 (configuration not stated)
 : -22%	i
- CCC1Oc2ccccc2N(CC(=O)NC2CCCC2)C1=O (configuration not stated)
 : -1%	0%
- Cn1c(N)c(C(=O)c2ccc(F)cc2F)c(=O)n(C)c1=O
 : 1%	-9%
- Cn1cc(-c2ccc(C(=O)NCc3cccc(Cl)c3)c3occc23)cn1
 : -19%	-5%
- N#Cc1nc(COc2ccc(Br)cc2)oc1NCCCn1ccnc1
 : -11%	-23%
- CC(C)CCNC(=O)C1CCCN1C(=O)NC1CCCCC1 (configuration not stated)
 : -14%	·
- CCCc1cc(C(=O)Nc2cc(C)nn2-c2ccccc2)no1
 : -10%	-26%
- Cc1nc(NC(C)c2ccccc2)c2oc3ccccc3c2n1 (configuration not stated)
 : ?	?
- NS(=O)(=O)c1cccc(NC(=O)CSc2nc3ccc(Cl)cc3[nH]2)c1
 : 2%	-7%
- O=C(CSCc1cnn(-c2ccccc2)c1-n1cccc1)NCc1ccc(F)cc1
 : -14%	2%
- CSc1ccc(C2c3[nH]c4ccccc4c3CCN2C(=O)CCc2ccccc2)cc1 (configuration not stated)
 : 7%	-5%
- COc1ccc(NC(=O)N(C)[C@H]2C[C@H]3c4[nH]c5ccc(-c6ccc(OC)cc6)cc5c4CCN3C(=O)[C@H]2[C@H](C)O)cc1
 : ?	-27%
- CCOC(=O)N1CC=C2C(C#N)=C(N)C(C#N)(C#N)[C@H](c3ccccc3OCC)[C@H]2C1
 : -3%	i
- COC(=O)C(C(=O)OC)c1ccc(-n2cccc2)cc1
 : -15%	-20%
- S=C(NCc1ccco1)Nc1cc(-c2ccccc2)[nH]n1
 : -21%	0%
- Cc1ccccc1C(=O)N1CCC(C(=O)O)CC1
 : -9%	i
- CCN1CCC(N(Cc2cccc(OC)c2)C(=O)Nc2cccc(C(F)(F)F)c2)CC1
 : -13%	-5%
- CCCc1nc2ccc(NC(C)=O)cc2c(=O)n1Cc1cccc(Cl)c1
 : -15%	-25%
- CCOC(=O)c1ccc(CNCc2ccc(Br)cc2)cc1
 : -19%	-17%
- COc1ccc(NC(=O)COC(=O)C2CCN(S(=O)(=O)c3cccs3)CC2)cc1OC
 : 4%	-15%
- CCN1C(=O)[C@H]2[C@@H](c3ccc(C(F)(F)F)cc3)N[C@]3(CCCN(Cc4ccc(F)cc4)C3=O)[C@H]2C1=O
 : ?	-16%
- Cc1cccc(S(=O)(=O)c2cn(Cc3ccccc3)c3cc(N4CCCCC4)c(F)cc3c2=O)c1
 : -16%	-8%
- CN(C)/C=C1/N=C(c2ccccc2)OC1=O
 : -2%	·
- CCSC1=C(C#N)C(c2ccccc2OC)CC(=O)N1 (configuration not stated)
 : -18%	i
- Cc1nn2cc(-c3ccc(OC(C)C)cc3)nc2s1
 : -13%	-17%
- CC(C)[C@H](NS(=O)(=O)c1ccc2c(c1)OCCO2)C(=O)OCC(=O)Nc1cc(Cl)ccc1Cl
 : -10%	-22%
- Cc1ccc(C2C=C(c3ccc(Cl)cc3)Nc3nc(NS(=O)(=O)c4ccccc4)nn32)cc1 (configuration not stated)
 : -6%[7.34 µM]	-4%[7.34 µM]

Compound profiles, from the list above. Values in the order: Vaccinia Venus, VACV mCherry inh
Listed for `CCN1C(=O)[C@H]2[C@@H](c3ccc(C(F)(F)F)cc3)N[C@]3(CCCN(Cc4ccc(F)cc4)C3=O)[C@H]2C1=O` → ?, -16%
Listed for `CCCc1nc2ccc(NC(C)=O)cc2c(=O)n1Cc1cccc(Cl)c1` → -15%, -25%
Listed for `Cc1ccc(C2C=C(c3ccc(Cl)cc3)Nc3nc(NS(=O)(=O)c4ccccc4)nn32)cc1` (configuration not stated) → -6%[7.34 µM], -4%[7.34 µM]
Listed for `CC(C)[C@H](NS(=O)(=O)c1ccc2c(c1)OCCO2)C(=O)OCC(=O)Nc1cc(Cl)ccc1Cl` → -10%, -22%
Listed for `CCSC1=C(C#N)C(c2ccccc2OC)CC(=O)N1` (configuration not stated) → -18%, i

High-throughput results as filed in PubChem.
